NPYLR7 agonist: agonists of mosquito NPYLR7 receptor, primary screen, cell-based, Aedes aegypti, calcium fluorescence, mosquito biting behavior; Aedes aegypti neuropeptide Y-like receptor 7 (NPYLR7); HEK293T NPYLR7/Galpha15, GCaMP6s calcium fluorescence; actives 0.15% (n = 270,000); AID 1259423, 2018; activation, % at 10 µM; in the data active = activation above about 40%;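 note: 0% = vehicle and 100% = reference agonist at the receptor; some compounds past the cut are filed as inactive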
NPYLR7 agonist max-min: recorded beside NPYLR7 agonist, whose call it bears; activation, %; measured here: Max-Min RFU normalised activation; some inactives read as strong as hits;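 span of the calcium signal over five minutes; 0% = vehicle and 100% = native peptide agonist; compound fluorescence can raise it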
The depositor's hits bear a star; & = joins results of further samples. Some of the compounds tested; the hit share may differ from the screen's.

SMILES,NPYLR7 agonist,NPYLR7 agonist max-min
CCC(C)NC(=O)c1nn(-c2ccc(Cl)cc2)c(=O)n(C(C)c2ccccc2)c1=O (stereo not drawn),11,12
COC(=O)/C=C/c1cc(Br)sc1NC(C)=O,-2,-4
CCOc1ccc(S(=O)(=O)N2CCN(c3ccccc3C)CC2)cc1,0,-8
CCCCN(C(C)=O)c1c(CC)nc2ccc(C(=O)Nc3ccc(NC(C)=O)cc3)cn12,31,20
CCOc1nc(-c2ccccc2C)n(-c2ccc(NC(=O)c3ccccc3Cl)cc2)n1,20,23
O=C(NCCc1ccc(Br)s1)c1cnccn1,9,9
CN1CCN(S(=O)(=O)c2ccc(Cl)c(N)c2)CC1,-10,-17
O=C(c1ccc(CSCc2ccc(Cl)cc2)cc1)N1C2CCC1CC(Oc1cccc(C(F)(F)F)c1)C2 (stereo not drawn),7,0
COc1ccccc1C1=NN(C(=O)CN2CCc3ccccc3C2)C(c2ccccc2Cl)C1 (stereo not drawn),0,8
COc1cc(OC)cc(C(=O)Nc2cccc(-c3cccc(-c4ccccc4OC)n3)c2)c1,-8,-10
Cc1cc(C)n(C(=O)c2sccc2S(=O)(=O)N(C)c2ccc3c(c2)OCCO3)n1,-2,-5
Cc1c(C(=O)C(F)(F)F)c2ccccc2n1CC(=O)N(C)c1ccccc1,5,1
CC(=O)c1cccc(N=c2oc3ccc4ccccc4c3cc2C(N)=O)c1,-7,-12
O=C(OC(C(=O)N1CCOCC1)c1ccccc1)c1cc(Cl)c2c(c1)OCO2 (stereo not drawn),14,10
COc1ccc(C)cc1NCCC(=O)N1CCn2cccc2C1C (stereo not drawn),-6,-7
C=CCC(CC(=O)O)C(=O)Nc1ccc(C(C#N)c2ccccc2)cc1 (stereo not drawn),-7,-12
CC(=O)N1N=C(c2ccco2)OC1C(=O)N1CCN(c2ccccc2)CC1 (stereo not drawn),13,8
O=C(CN1CCCc2cc(F)cc(F)c21)NCCc1ccccc1,-4,-3
CC(N)=C(C#N)C(=O)COC(=O)c1ccc(C)s1,15,12
CN1CC2(CCN(C(=O)c3c4c(nn3C)CCCC4)C2)OC1=O (stereo not drawn),1,2
C=Cc1c(C)c2[n-]c1=Cc1[n-]c(c(CC)c1C)C=c1[n-]c3c(c1C)C(O)=C(C(=O)O)C=3c1[n-]c(c(C)c1CCC(=O)O)C=2.[Cu],-8,-19
CCCCOc1ccc(C(=O)N(Cc2c(C)nn(-c3cccc(F)c3)c2N2CCN(CC)CC2)C2CC2)cc1,-12,3
O=C(NCCc1ccc(F)cc1)c1ccc(-c2cc(-c3cccc4ccccc34)[nH]n2)cc1,-1,11
O=S(=O)(c1ccc(Br)cc1)N1CCCN(c2nc3ccccc3nc2-c2ccccc2)CC1,9,7
CC1(C)CC(=O)c2c(nc3sc(C(=O)c4ccc5c(c4)OCCO5)c(N)c3c2-c2ccccc2)C1,10,12
CCCc1cc(CN(C)C(=O)c2ccoc2C)[nH]n1,-1,-3
CCc1nc([C@H]2CN(C)C[C@@H]2C(=O)N2CCNC(=O)CC2)c(C)[nH]1,8,4
CC(C)c1nc(CCN(C)C(=O)c2cnn3ccn(C)c23)no1,2,0
O=C(Nc1cccc(-n2cnnn2)c1)C1CCCN(Cc2cccnc2)C1 (stereo not drawn),21&-3,8&-4
O=C(OCCc1cccnc1)c1cc(F)cc(F)c1,0,-3
CCOC(=O)N1CCN(C(=O)Cc2csc(NC(=O)CN(CC(C)C)C(=O)c3ccc(OC)cc3)n2)CC1,-7,2
CCOC(=O)c1sc(N)c(C(=O)OCC)c1CSc1nncn1C(C)C,0,3
CCN(Cc1cccs1)C(=O)CSc1nnc(-c2ccccc2)n1C,8,2
COc1ccc2cc([C@H](C)C(=O)O)ccc2c1,-7&-6&-7&1&-5,-13&-11&-5&-14&-9
Cc1ccc(C)c(Cn2ccnc2CN(C(=O)C2CC2)C2CCCCC2)c1,23,22
COc1cccc(CCC(=O)N2CCC(n3cnc4ccc(C)cc43)CC2)c1,19,9
CC(Nc1ccc2c(c1)NC(=O)CS2)C(=O)Nc1ccc(Br)cc1 (stereo not drawn),-1,2
CN1C[C@H](NC(=O)C2(S(=O)(=O)c3ccccc3)CC2)C[C@H]1CO,-1,-5
CC(=O)c1cc([N+](=O)[O-])c(Sc2ccc(F)cc2F)s1,-1,-8
COc1ccc(C(=O)N2CCSC23C(=O)N(Cc2ccccc2Cl)c2ccccc23)cc1 (stereo not drawn),-1,6
COc1ccc(OC)c(S(=O)(=O)n2ccnc2C)c1,1,0
CC(C)c1cc(-c2nn3c(C(C)(C)C)nnc3s2)n[nH]1,-7,-16
COCC(=O)Nc1cc(C)nn1-c1ncnc2c1cnn2-c1ccc(Cl)cc1,6,7
O=C(CSc1nc(C(F)(F)F)cc(=O)[nH]1)NCc1ccc2c(c1)OCO2,-5,-5
Cc1cccc(-c2noc(CN(C)C(=O)c3cc4n(n3)CCCN(C)C4)n2)c1,13,-2
CN(CC(=O)Nc1ccc2c(c1)CCC2)Cc1cccc(Cl)c1Cl,8,8
Cc1cc(N)n(CCC#N)n1,15,13
O=C(NC1C[C@@H]1c1ccccc1)c1cncn1-c1cccc(-c2ccccc2C(F)(F)F)c1 (stereo partly drawn),-1,1
c1ccc(CCc2nnc3n2CCN(Cc2ccc4c(c2)Cc2ccccc2-4)CC3)cc1,34,23
CCC(C)Nc1nnc(SCC(=O)c2c(N)n(C3CC3)c(=O)[nH]c2=O)s1 (stereo not drawn),0,-2

Another view of part of the listing above:
Cc1cccc(-c2noc(CN(C)C(=O)c3cc4n(n3)CCCN(C)C4)n2)c1
  NPYLR7 agonist = 13; NPYLR7 agonist max-min = -2

CN(CC(=O)Nc1ccc2c(c1)CCC2)Cc1cccc(Cl)c1Cl
  NPYLR7 agonist = 8; NPYLR7 agonist max-min = 8

Entries listed so far that contain an NH in an aromatic ring:
SMILES,NPYLR7 agonist,NPYLR7 agonist max-min
O=C(NCCc1ccc(F)cc1)c1ccc(-c2cc(-c3cccc4ccccc34)[nH]n2)cc1,-1,11
CCCc1cc(CN(C)C(=O)c2ccoc2C)[nH]n1,-1,-3
CCc1nc([C@H]2CN(C)C[C@@H]2C(=O)N2CCNC(=O)CC2)c(C)[nH]1,8,4
CC(C)c1cc(-c2nn3c(C(C)(C)C)nnc3s2)n[nH]1,-7,-16
O=C(CSc1nc(C(F)(F)F)cc(=O)[nH]1)NCc1ccc2c(c1)OCO2,-5,-5
CCC(C)Nc1nnc(SCC(=O)c2c(N)n(C3CC3)c(=O)[nH]c2=O)s1 (stereo not drawn),0,-2

(further entries)
SMILES,NPYLR7 agonist,NPYLR7 agonist max-min
Cc1ccsc1CN(C)C(C)c1nc2sc(C)c(C)c2c(=O)[nH]1 (stereo not drawn),-6,-6
COc1cc(C(C#N)NC(=O)CC2=CCCCC2)cc(OC)c1OC (stereo not drawn),5,1
Cc1ccn2c(=O)c(NC(=O)c3ccco3)c(C)nc2c1,6,3
Cc1ccccc1C(C)CC(=O)N(CCN(C)C)CCN(C)C (stereo not drawn),-1,-3
CC(=O)N(C)c1ccc(NC(=O)c2cc(F)ccc2-c2ccccc2)cc1,4,-1
CCCCCCNC(=O)c1cc(-c2cccc(OC)c2)nc2cc(-c3ccccc3)nn12,15,24
Cc1ncc(CN(C)Cc2cn3ccccc3n2)s1,-2,-6
CC(C)C(=O)NNC(=O)CCc1ccc(Cl)cc1Cl,-5,-3
O=C(c1cccc(Cl)c1)N1CCN(c2nc3nccc(-c4cccs4)n3n2)CC1,5,1
COc1ccccc1Oc1ccc(S(=O)(=O)NCCc2ccccc2)cc1,-1,2
CC1CCc2c(sc3ncn(CC(=O)OC(C)(C)C)c(=O)c23)C1 (stereo not drawn),-2,1
O=C(Nc1nnc(C2CC2)s1)C(Oc1ccccc1)c1ccccc1 (stereo not drawn),9,0
CCCCN(C=O)c1c(CC)nc2c(OCCC)cccn12,-16,-4
O=C1c2ccccc2C(=O)C1c1ccc(Cl)cc1,-6,5
Cc1cc(O)c(CN2CCC(C(=O)N3CCOCC3)CC2)cc1C,-3,-6
N#CC(C#N)=C1C=C2C=C(N3CCCCC3)CCC2CC1 (stereo not drawn),116*,115*
O=C(c1cccc2[nH]c(-c3cccs3)nc12)N1CC[C@@H](O)C1,-1,16
Cc1ccc(C(=O)N2CCN(c3cc(C(C#N)c4ccncc4)ncn3)CC2)cc1[N+](=O)[O-] (stereo not drawn),-1,-2
CCOC(C)c1ccc(-c2cccc(N3CCNCC3)c2)cc1 (stereo not drawn),14,5
CCc1nc(Sc2cc(C)nc(C(C)(C)C)n2)n[nH]1,20,12
COc1ccc(NC(=O)Nc2ccc(N3CCN(c4ccccc4OC)CC3)c(C(=O)NCCN3CCOCC3)c2)c(OC)c1,-7,-4
Cc1nc(-c2cccc(F)c2)nc(N2CCN(C(=O)c3ccc(Cl)cc3)CC2)c1C,6,18
O=C(C=Cc1ccc(F)cc1)NCc1ccco1,3,1
O=C(NCc1ccc(C(=O)N2CCCCC2)cc1)NC1CCc2ccccc21 (stereo not drawn),3,3
COc1cc(C2NC(=S)NC(C)=C2C(N)=O)ccc1O (stereo not drawn),-12,-11
CCn1c2ccccc2c2cc(CN3CCCC(CCC(=O)N4CCOCC4)C3)ccc21 (stereo not drawn),10,11
O=C(CCc1cc(Cl)no1)N1CCC2(CCNCC2)CC1,6,4
COc1ccc(-n2ncc(Oc3ccc4c(c3)CCC4)c(Nc3ccc(C(=O)NCc4ccccn4)cc3)c2=O)cc1,5,13
COc1ccc(CN(CC(O)COCc2ccccc2)CC2CCCO2)cc1OC (stereo not drawn),7,10
Cc1nn(C)cc1CN(C)C(=O)CC1(c2ccccc2)CC(=O)N(Cc2cccs2)C1=O (stereo not drawn),-1,-1
CNC(=S)Nc1ccc(OC)c(OC)c1,-6,-3
C=CCN(Cc1ccccc1OC)C(=O)c1ccc2[nH]c(=O)[nH]c2c1,11,-2
COc1ccccc1-n1cc(C(=O)N2CCCC(Nc3ccc4c(c3)OCO4)C2)cn1 (stereo not drawn),6&0,6&-1
O=C(CCCSc1ccc(NC(=O)C2CC2)nn1)NC1CC1,0,-2
CCOC(=O)c1cnoc1N,-2,-2
Cc1ccc(S(=O)(=O)N2CCC3(CC2)C(=O)N(CC(=O)N(C)Cc2ccccc2)CN3c2ccccc2)cc1,8,22
COc1cccc(CNC(=O)C(=O)NCC(c2ccco2)N2CCc3ccccc32)c1 (stereo not drawn),5,0
CC(=O)Nc1ccc(CN2CCCC(N(C)CCc3ccccc3)C2)cc1 (stereo not drawn),3,-1
Cc1ccccc1C(=O)NCCN1CCn2cc(OCc3ccccc3)c(=O)cc2C1=O,12,2
CCOc1cccc2cc(-c3csc(NC(=O)C4CCN(S(C)(=O)=O)CC4)n3)oc12,0,-3
CCC(=O)N1CCc2[nH]nc(C(=O)NCc3ccccc3)c2C1,9,4
Cc1nnsc1C(=O)N1CCCC(c2n[nH]c(=O)n2-c2ccccc2)C1 (stereo not drawn),5,3
Cc1nn(C(C)C)c(C)c1-c1cc(C(=O)O)[nH]n1,0,27
CCCC(=O)N1N=C(c2cccc(NS(C)(=O)=O)c2)CC1c1cccc(F)c1 (stereo not drawn),-1,-1
CCN(CC)CCCC(C)NC(=O)c1cc(-c2ccccc2OC)n2nc(C(C)(C)C)cc2n1 (stereo not drawn),7,13
CCOC(=O)c1c(C)c(C(=O)CN(C2CC2)S(=O)(=O)c2ccc3ccccc3c2)c(C)n1CC,-10,-3
COc1cc(C#N)ccc1OC(F)F,8,3
Cc1nc(=S)c2c(=O)n(C)c(=O)n(CC(C)C)c2[nH]1,2,-1
O=C(NCc1cccs1)c1cccnc1N1CCN(C(=O)c2cc(F)cc(F)c2F)CC1,-7,4
CCOC(=O)CCC(=O)Nc1ccccc1C1SCC(=O)N1c1cc(C)ccc1OC (stereo not drawn),17,24

(list continues)
SMILES,NPYLR7 agonist,NPYLR7 agonist max-min
Cn1c(NCc2cccnc2)nc2cc(-c3ccc(C(=O)N4CCOCC4)cc3)sc2c1=O,12,8
N#CCCC(C#N)Cn1cnc2sc(-c3ccccc3)cc2c1=O (stereo not drawn),2,26
Cc1cnn(C(C)C(C)NC2CC(C)OC2=O)c1 (stereo not drawn),0,-5
Cc1cccc(-c2nc3ccccn3c2NC(C)(C)CC(C)(C)C)c1,8,13
Cc1ccccc1CSc1nc2c(c(=O)n1-c1ccccc1)SCC2,-4,-5
CCOc1ccccc1N1C(=O)CSC1c1ccc(NC(=O)C(C)(C)CCl)cc1 (stereo not drawn),1,6
COc1ccc(CC(=O)N2CCOC(COCc3ccccc3F)C2)cn1 (stereo not drawn),20,30
Cc1ccccc1CN1CCC(CNC(=O)Cc2cccnc2)CC1,12,3
Cc1ccc(Cc2nnc(Nc3ccc(C)cc3)[nH]c2=O)cc1,12,4
CN(CC(=O)NCc1cccs1)C(=O)C(C)(C)n1cc(Cl)cn1,-1,-1
